Calb biofilm kill – mixtures killing C. albicans biofilm; AID 1242; inhibition, % at 7.6 µM; C. albicans biofilm persisters + clotrimazole, fluorescence viability; primary screen in compound mixtures of four per well; hit rate 0.02% among 120,000;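 active = inhibition above 30.3% in the primary screen of four-compound pools, then above 30% when the compound was retested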;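 also: compounds exposed to preformed 24 h biofilms for 48 h; the number belongs to the whole pool; some results filed as inactive read as strong as hits; inactives centre near 12; 0% = biofilm with clotrimazole alone and 100% = kill control; retested singly at about 60 µM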
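Assay system: C. albicans biofilms / Medium: RPMI/MOPS medium, pH 7.0 / Schedule: biofilm formation 24 h, compound exposure 48 h, 37 °C / Measured by: Alamar Blue fluorescence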
The depositor's hits bear a star. An excerpt; rates above refer to the full screens.

SMILES	Calb biofilm kill
CN(C)/C=C/c1c([N+](=O)[O-])c2ccc(O)cc2n1-c1ccccc1	11.8
COc1ccc(C(=O)Nc2cccc(C(=O)NCc3ccco3)c2)cc1	-6.8
O=C(CCC(=O)N1CCN(c2ccc(O)cc2)CC1)c1cccs1	5.2
C/C(=N\NC(=O)c1c[nH]c2ccccc12)c1ccccn1	0.2
O=C(Cc1c[nH]c2ccccc12)NCc1ccco1	-0.2
CCOC(=O)c1cc(-c2ccc(OC)cc2)nn1-c1ccccc1C(=O)O	15.6
CCOC(=O)c1cc(-c2csc(-c3ccc(C(F)(F)F)cc3)n2)on1	21.0
CCN1CCN(C(=S)c2ccc(OC)cc2)CC1	-30.6
O=C(NNC(=O)c1cccc(Br)c1)Nc1ccc(Cl)cc1	5.2
O=C(NCCC(c1ccccc1)c1ccccc1)c1cnc2sccn2c1=O	4.2
Nc1cc(Oc2cccnc2)cc([N+](=O)[O-])c1	9.5
C[C@H]1CC[C@H]2C(=O)N3[C@H](c4cccc(N5CCCC5=O)c4)[C@@H](C)CC[C@H]3C(=O)N2[C@@H]1c1cccc(N2CCCC2=O)c1	10.3
COc1ccc(C(=O)COC(=O)C2CCN(S(=O)(=O)c3cccc4cccnc34)CC2)cc1	16.1
COC(=O)CSc1nnc(CNC(=O)c2ccc(S(=O)(=O)N(C)C)cc2)n1C	9.7
COc1ccc2c(c1)OC(c1ccccc1)(C(F)(F)F)NC2=O (centres undefined)	12.9
S=c1[nH]nc(-c2cc(-c3ccccc3)n[nH]2)n1/N=C/c1c(Cl)cccc1Cl	19.6
Cc1cc(C)n2cc(CSc3ccccn3)nc2n1	8.7
COC(=O)c1cc(OC)c(OC)cc1NC(=O)c1ccccc1C	11.2
O=C(COC(=O)c1ccccc1Nc1ccccc1)NCc1ccccc1Cl	9.3
O=C(/C=C/c1ccc(O)c(O)c1)O[C@H](Cc1ccc(O)c(O)c1)C(=O)O	14.7
CCCCn1c(-c2cccnc2)n[nH]c1=S	12.1
CC1=C(C(=O)N(C)C)C(c2ccc(C)s2)NC(=S)N1 (centres undefined)	16.5
CCOC(=O)N1CCN(C(=O)C2CCN(C(=O)c3cc(OC)cc(OC)c3)CC2)CC1	11.6
CC1(C)CC(NNCCC#N)=CC(=[N+]2CCCC2)C1	17.8
CCOC(=O)C1CCN(CC(=O)NC(=O)NC2CCCCC2)CC1	22.2
Cc1cc(-c2nnc(CCC(=O)NC(C)c3ccc(F)cc3)o2)no1 (centres undefined)	12.8
COc1cccc(C(=O)N/N=C(/CCC(=O)O)c2ccccc2)c1	17.5
O=[N+]([O-])c1ccc(NCCCN2CCOCC2)c([N+](=O)[O-])c1	19.8
NNC(=O)c1sc2nc(N3CCOCC3)c3c(c2c1N)CCCC3	30.4
O=C(COC(=O)CCc1c[nH]c2ccccc12)NCc1ccc(Cl)cc1	14.4
CCN(CC)CCNC(=O)Cn1ncc2ccccc2c1=O	29.6
O=C(O)/C=C/c1cccc2c1OCCO2	25.8
Nc1c(C(=O)OCC(=O)NCc2ccccc2)[nH]c(=O)[nH]c1=O	11.7
O=C(c1ccc(S(=O)(=O)N2CCCCC2)cc1)N1CCN(CCN2C(=O)c3cccc4cccc(c34)C2=O)CC1	16.7
CC(=O)c1ccccc1NS(C)(=O)=O	4.0
C#CCNC(=O)C1=C[C@@H](c2ccc(C(F)(F)F)cc2)[C@H](CCCO)[C@@H](OCC)O1	18.1
Cc1ccc(NC(=O)COC(=O)CCC(=O)c2ccc(Cl)cc2)cc1S(=O)(=O)N(C)C	-10.0
CCN(C(=O)c1cnc(OC)cc1C(F)(F)F)c1ccc(Cl)cc1	18.9
O=C(OC(C(=O)NCc1ccco1)C(OC(=O)c1ccccc1)C(=O)NCc1ccco1)c1ccccc1 (centres undefined)	10.4
O=C(CCCCCNC(=O)c1ccccc1)C[N+](=O)[O-]	20.1
O=S1(=O)N=C(Nc2ccc(N3CCOCC3)c(Cl)c2)c2ccccc21	15.9
CCCCc1ccc(NC(=O)COc2ccc(C(=O)Nc3ccccc3OC)cc2)cc1	13.9
Nn1nnc2ccccc21	14.9
Cc1ccc(C)c(NC(=O)COC(=O)CCc2ccc(S(=O)(=O)N3CCOCC3)cc2)c1	12.6
Cc1cc(C)nc(N/C(=N\S(=O)(=O)Cc2ccccc2)Nc2ccc(F)c(Cl)c2)n1	12.2
Cc1ccccc1NC(=O)N1CCc2ccccc2C1	12.8
N/C(=N\OC(=O)Cc1ccccc1[N+](=O)[O-])c1ccncc1	11.9
COc1ccc(-c2cc(C(F)(F)F)nc(SCC(=O)NCCCN3CCOCC3)n2)cc1	15.4
COc1cc(OC)c(CN2CCC(CO)(CCOc3ccccc3)CC2)c(OC)c1	32.6
CC(C)(C)c1ccc(S(=O)(=O)Nc2ccccn2)cc1	0.4
NC(=O)COC(=O)/C=C/c1ccccc1[N+](=O)[O-]	14.3
COc1ccc(C(NC(=O)/C=C/c2ccco2)c2ccc(OC)c(OC)c2)cc1 (centres undefined)	21.6
O=C(NCc1cccnc1)c1nc(-c2ccc(C(F)(F)F)cc2)no1	16.9
COC(=O)c1c(C(=O)OC)c(-c2cccc(C)c2)n2c1CS(=O)C2 (centres undefined)	6.9
CSc1nnc(-c2cccn(Cc3ccccc3)c2=O)o1	0.8
CSc1nc(N(C)C)c2ccccc2n1	9.0
COc1cccc(C2CCCN2Cc2nc(CC3CC3)no2)c1 (centres undefined)	17.9
CC(C)n1c(SCC(=O)N2CCN(C(=O)c3ccco3)CC2)nc2c1c(=O)n(C)c(=O)n2C	12.6
c1ccc(-c2csc3ncnc(N4CCc5ccccc5C4)c23)cc1	2.1
CC(=O)Nc1cc(C(=O)OCC(=O)c2ccc(C)cc2)ccc1C	10.4
(list continues)
SMILES	Calb biofilm kill
CCC1CCC2(CC1)SCC(=O)N2c1ccccc1 (centres undefined)	15.1
Cc1ccc(C(=O)C[n+]2ccc(-c3nnc4n3CCC4)cc2)cc1	15.2
Cn1cccc2[nH]c(=O)nc1-2	11.9
Nc1nnc(CC(=O)N/N=C/c2ccc(-c3ccccc3Cl)o2)s1	18.6
COc1ccc2occ(C(=O)c3ccccc3)c2c1	17.2
O=C(c1ccccc1Sc1ccc([N+](=O)[O-])cc1Cl)N1CCOCC1	15.3
CC(=O)NCCNC(=O)c1oc2ccccc2c1CSc1ncn[nH]1	14.8
O=C(COC(=O)c1ccc([N+](=O)[O-])s1)Nc1ccccc1	10.3
Cc1ccc(C)c(NS(=O)(=O)c2cc(C(=O)N3CCCC3)ccc2Cl)c1	12.9
CCN(CC)CCNC(=O)c1ccc(NC(=O)c2ccc(F)cc2F)cc1	-0.1
O=C(O)c1ccccc1SCC(=O)N1CCc2ccccc21	5.2
CC(C)Cn1c(N)c(C(=O)CSc2nc3ccccc3c(=O)n2CCCN2CCOCC2)c(=O)n(C)c1=O	19.2
CCCC(=O)Nc1cccc(C(=O)Nc2ccccc2OCC)c1	0.8
CC[C@@H](C)C(NC(=O)OC(C)(C)C)c1cn([C@@H](Cc2cc3ccccc3[nH]2)C(=O)N2CCN(C(=O)OC(C)(C)C)CC2)nn1 (some centres undefined)	18.0
COCCCNC(=S)N1CCN(S(=O)(=O)c2ccc(OC)cc2)CC1	5.0
CCCCOC(=O)c1sc2nc(N3CCOCC3)c3c(c2c1N)CC(C)(C)OC3	11.2
CCC(C)[C@H](NC(=O)N1CCN(C)CC1)C(=O)OC (some centres undefined)	14.1
Cc1cc(NC(=O)CSc2nc3ccccc3n2CC(C)C)no1	12.9
CCCOc1ccc(/C=N/Nc2ccccn2)cc1OC	-7.4
CC(C(=O)O)n1cnc2sc3c(c2c1=O)CCCC3 (centres undefined)	15.5
CCOC(=O)C1=C(C)Nc2nc(C)nn2C1c1ccc(OCC)c(OC)c1 (centres undefined)	18.0
O=C(c1cc(COc2c(F)cccc2F)on1)N1CCC(c2ccccc2Cl)C1 (centres undefined)	-17.8
S=C(c1ccc(-c2ccccc2)o1)N1CCCCC1	10.7
COC(=O)/C=C1\SC(N)=NC1=O	11.5
COc1cc2[nH]c(Cl)c([N+](=O)[O-])c2cc1OC	16.8
CS(=O)(=O)N1CCN(C(=O)Cc2ccccc2Cl)CC1	13.0
Cc1cccc(NC(=O)Nc2nnc(-c3ccccc3)o2)c1	12.9
COc1ccc(NC(=O)c2cccn(CC=C(C)C)c2=O)cc1	-5.1
COCCNC(=S)N/N=C(\C)c1ccccc1F	6.0
CCCCN(CCCC)CC(O)Cn1c2ccccc2c(=O)c2ccccc21 (centres undefined)	13.8
CCCN(CCC)C(=O)CC(c1ccccc1)C1CCOC(C)(C)C1 (centres undefined)	2.4
Cc1ccc(C2(CCNCc3ccc(N(C)C)cc3)CCOC(C(C)C)C2)cc1 (centres undefined)	24.2
COc1cc(/C=C2\C(=O)NN(c3ccc(C)cc3)C2=O)cc([N+](=O)[O-])c1O	1.4
CN1CCC(=NNC(=O)CN(c2ccc(Oc3ccccc3)cc2)S(C)(=O)=O)CC1	8.9
O=C(NC1CCC(O)CC1)c1cc(-c2ccco2)nc2ccccc12 (centres undefined)	2.0
CCc1nnc(NS(=O)(=O)c2ccc(NC(=O)c3ccco3)cc2)s1	13.6
Cc1ccc(NC(=O)c2cc(=O)n(Cc3ccccc3)c(=O)[nH]2)cc1C	12.7
Cc1ccn2c(CNCCCn3cccn3)c(C(=O)N3CCCCCC3)nc2c1	25.0
C/C(=N/NC(=O)CNC(=O)c1ccc2c(c1)OCO2)c1ccc2c(c1)CCCC2	7.0
CC(C)(C)c1cc(C(=O)NNc2cc(C(F)(F)F)ccc2Cl)n(Cc2ccccc2)n1	6.4
Cc1csc(=Nc2c(C)n(C)n(-c3ccccc3)c2=O)n1-c1ccccc1	14.8
O=C1CCNc2c(Cl)cc(Cl)cc21	12.6
Cc1cccc(NC(=S)NC(C)C(c2cccs2)N2CCN(C)CC2)c1C (centres undefined)	23.4
COc1ccc(-c2cc(C(=O)NCCc3ccc(S(N)(=O)=O)cc3)c3ccccc3n2)cc1	9.6
CCNc1nc(NCC)nc(OCCOC(C)=O)n1	14.3
CCc1ccc(NC(=O)N2CCC(c3ccccc3)C2)cc1 (centres undefined)	5.3
CC1CN(c2nnc(-c3ccccc3)c3ccccc23)CC(C)O1 (centres undefined)	2.1
O=C(Nc1ccccc1)c1ccc(NCCN2C(=O)CCC2=O)c([N+](=O)[O-])c1	9.8
Clc1ccc(/C=N\Nc2ccccc2)cc1	20.8
CCOc1ccccc1NC(=S)N(CCCN1CCOCC1)Cc1cn(C)c2ccccc12	20.9
O=C(Nc1cccn(Cc2c(F)cccc2Cl)c1=O)NC1CCCCC1	-8.2
Cc1ccc(N(C)C(=O)C2CCCN2S(=O)(=O)c2cccc3nsnc23)cc1 (centres undefined)	13.7
COc1ccc(C(=O)Nc2ccc3nc(C)sc3c2)cc1OC	11.2
O=C(c1ccc(N2CCC3(CC2)OCCO3)c([N+](=O)[O-])c1)N1CCOCC1	21.5
Cc1cn2c(nc1=O)OC1CC2OC1CO (centres undefined)	26.5
CC[C@H](CO)NCCN[C@H](CC)CO	10.7
CSCCC(NC(=O)c1ccc(Cl)cc1)C(=O)OCC(=O)Nc1ccc(C#N)cc1 (centres undefined)	12.1
Oc1cccnc1CCc1ccccc1	55.8
COc1ccc(NC(=O)COC(C)=O)cc1OC	7.7
Cc1cc(NC(=O)c2ccc(C#N)cc2)n(-c2ccccn2)n1	36.6

Random excerpt: 7 compounds from above, in no set order.
SMILES	Calb biofilm kill
Cc1cn2c(nc1=O)OC1CC2OC1CO (centres undefined)	26.5
O=C(O)/C=C/c1cccc2c1OCCO2	25.8
COc1ccc(NC(=O)c2cccn(CC=C(C)C)c2=O)cc1	-5.1
O=C(O)c1ccccc1SCC(=O)N1CCc2ccccc21	5.2
Cc1ccc(C2(CCNCc3ccc(N(C)C)cc3)CCOC(C(C)C)C2)cc1 (centres undefined)	24.2
Cc1ccccc1NC(=O)N1CCc2ccccc2C1	12.8
CC(=O)NCCNC(=O)c1oc2ccccc2c1CSc1ncn[nH]1	14.8

4 structures from above, ordered by number of heavy atoms, smallest number first.
SMILES	Calb biofilm kill
CCc1ccc(NC(=O)N2CCC(c3ccccc3)C2)cc1 (centres undefined)	5.3
COc1ccc(C(=O)Nc2ccc3nc(C)sc3c2)cc1OC	11.2
Cc1ccc(N(C)C(=O)C2CCCN2S(=O)(=O)c2cccc3nsnc23)cc1 (centres undefined)	13.7
CCOc1ccccc1NC(=S)N(CCCN1CCOCC1)Cc1cn(C)c2ccccc12	20.9

The list goes on.
SMILES	Calb biofilm kill
COc1cc(N)n(S(=O)(=O)c2ccc(C)cc2)n1	13.5
O=C(O)COc1ccc(NC(=O)c2ccc(NC(=O)c3ccco3)cc2)cc1	10.9
CCC(=O)NC(c1ccc(OC)c(OC)c1)c1cc(Cl)c2cccnc2c1O (centres undefined)	-2.0
CCC(C)c1ccc(OCc2ccc(C(=O)OC)o2)cc1 (centres undefined)	9.4
CC1CCC(NC(=O)CN(C)S(=O)(=O)c2cccc3cccnc23)CC1 (centres undefined)	23.9
C=CCC1(CC=C)CCCN1C(=O)CC1C(=O)NCCN1Cc1cccc(OC)c1 (centres undefined)	32.7
O=C(N/N=C\c1ccc(CNS(=O)(=O)c2ccc(Cl)cc2)o1)C(=O)Nc1ccc(Oc2ccccc2)cc1	12.3
Cc1cccc(NC(=O)CNC(=O)COc2cc(F)ccc2[N+](=O)[O-])c1C	15.2
O=C1CCCN1CCCNC(=S)Nc1ccccc1	-3.0
O=C(CNC(=O)c1ccc(F)cc1)N/N=C/c1ccc(O)c([N+](=O)[O-])c1	21.9
Cc1ccc(NC(=O)C2CCN(S(=O)(=O)c3c(C)noc3C)CC2)cc1C	25.8
O=C(Cc1cccs1)N/N=C/C=C\c1ccco1	4.5
COc1cc(OC)cc(C(=O)N[C@H](C(=O)OCC(=O)Nc2ccc(F)c(F)c2F)C(C)C)c1	2.8
C=CCN1C(=O)CSc2ccc(C(=O)NCc3cccs3)cc21	-1.8
O=C(NCCCn1ccnc1)C(=O)NCC1OCCN1S(=O)(=O)c1ccc2c(c1)OCCO2 (centres undefined)	7.3
O=c1c2ccccc2nnn1Cc1ccccc1	13.1

Bioassay records (PubChem)
